RN4220 kill: growth inhibition of S. aureus RN4220, primary screen, OD600 | 16 h | inhibition, % (concentration not given with the values) | actives 0.33% (n = 330,000) | AID 1259311, 2017;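 active = z-score of -3 or lower and OD600 up to 0.18 on both plates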;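 note: plate controls were untreated cells for no effect and reference antibiotic for full effect; stock transfer was 100 nL into about 80 µL; one replicate is shown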
Bead autofluor: compound fluorescence in toxin protease inhibitor counterscreen; compound autofluorescence counterscreen, microsphere flow cytometry; stronger effect = higher value; fluorescence intensity (concentration not given with the values); actives 3.1% (n = 360,000);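 active = at least 3 SD above the mean of all compounds, about 16000 in these data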;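 note: 100 nL of 1 mM stock went into each well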
PrP UTR inh: inhibition of PrP 5' UTR reporter expression; cell-based PrP 5' UTR mRNA reporter, plate reader; inhibition, % (no concentration beside the values); AID 488862, 2010; actives 0.35% (n = 340,000);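 active = every replicate at 50% or more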;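 note: 0 = median of the neutral control wells; tested in H4 reporter cells; numbers are from one replicate; inactives centre near -14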
ugtP null kill: growth inhibition of ugtP-null S. aureus, primary screen, RN4220 ugtP deletion, OD600; 16 h; some inactives read as strong as hits; growth inhibition, % (test concentration not listed); actives 0.54% (n = 330,000);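 active = z-score under -3 and OD600 up to 0.15 on both plates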;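 note: plate controls were untreated wells for no effect and antibiotic for full effect; wells of about 80 µL received 100 nL stock; the first replicate is given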
Mtb hypoxia rep: PubChem AID 1159583 | M. tuberculosis hypoxia-regulated fluorescent reporter, fluorescence | actives 0.1% (n = 300,000) | fluorescence inhibition, % (concentration not given with the values);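 active = 35 to 45% if threefold the growth effect, above 45% if 1.5-fold the growth effect; inactive = the rest, general growth blockers included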;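 note: wells of about 50 µL received 100 nL stock; 0% = vehicle wells and 100% = reference inhibitor wells; whole bacteria with a GFP reporter of the hypoxia response; strong numbers were not always called active; many hits fall short of the cut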
BJeLR viability: MLPCN primary cell-based screen for lethality selective to Ras in HRASV12 cells. inhibition, % (test concentration not listed). actives 0.17% (n = 300,000). BJeLR (HRASV12) viability, CellTiter-Glo ATP luminescence, 48 h; reference of the scale not given here;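 active = replicate mean above 50%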;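 note: 50 nL library stock added to about 25 µL; numbers are from one replicate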
Mtb hypoxia rep growth: further read-out of Mtb hypoxia rep, marked with its call; growth inhibition, %; measured here: M. tuberculosis growth (absorbance);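 0% = vehicle and 100% = reference antibiotic; read after six days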
Numbers without * were called inactive; & = joins results of further samples.

Screening c1ccc(C(c2ccccc2)c2ccn[nH]2)cc1 returned RN4220 kill 4.9, Bead autofluor 4183, PrP UTR inh -15, ugtP null kill 3, Mtb hypoxia rep 18, BJeLR viability 0 and Mtb hypoxia rep growth 6.
`Clc1ccc(OCCN2CCCCC2)cc1Cl` gave RN4220 kill -8.8, Bead autofluor 2135, PrP UTR inh 4, ugtP null kill -4, Mtb hypoxia rep -3, BJeLR viability -16 and Mtb hypoxia rep growth 12.
Screening CC(=O)Nc1cccc(OCCCNC(=O)C2CCC2)c1 returned RN4220 kill 5.4, Bead autofluor 4067, PrP UTR inh -24, ugtP null kill 9, Mtb hypoxia rep 8, BJeLR viability -9 and Mtb hypoxia rep growth 15.
`CCOC(=O)C1CCCN(S(=O)(=O)CCNC(=O)c2ccccc2)C1` (stereo not drawn) gave RN4220 kill 2.0, Bead autofluor 4433, PrP UTR inh -16, ugtP null kill 6, Mtb hypoxia rep -2, BJeLR viability 4 and Mtb hypoxia rep growth -6.
`c1ccc(-c2csc(N3CCOCC3)n2)cc1` gave RN4220 kill 7.9, Bead autofluor 6646, PrP UTR inh -51, ugtP null kill 10, Mtb hypoxia rep 12, BJeLR viability -4 and Mtb hypoxia rep growth 11.
Screening O=C1CN(C(=O)COC(=O)C2CC(=O)N(Cc3ccco3)C2)c2ccccc2N1 (stereo not drawn) returned RN4220 kill -0.3, Bead autofluor 2648, PrP UTR inh -12, ugtP null kill 4 and BJeLR viability -3.
Nc1nnc(/C=C/c2ccccc2)s1 was read as Bead autofluor 4214, PrP UTR inh -16 and BJeLR viability 3.
Screening O=C(CSc1nc(=O)n(CCCN2CCOCC2)c2c1CCCC2)Nc1ccc(Cl)cc1 returned RN4220 kill -0.7, Bead autofluor 7471, PrP UTR inh -22, ugtP null kill 3, Mtb hypoxia rep 4, BJeLR viability 4 and Mtb hypoxia rep growth -2.
O=C(CCC(F)(F)F)N1CCCC(CO)(CCc2ccccc2)C1 (stereo not drawn) was read as RN4220 kill 3.9, Bead autofluor 3971, PrP UTR inh -35, ugtP null kill 2, Mtb hypoxia rep 12, BJeLR viability -6 and Mtb hypoxia rep growth 3.
Screening COc1ccc(NC(=O)c2ccco2)cc1NC(=O)c1cccc(OC(C)C)c1 returned RN4220 kill 0.9, Bead autofluor 8380, PrP UTR inh -19, ugtP null kill -7, Mtb hypoxia rep 4, BJeLR viability -11 and Mtb hypoxia rep growth 7.
For Cc1ccc(-n2c(SCC(=O)Nc3ccc4c(c3)OCO4)nnc2-c2cccs2)cc1 the results were RN4220 kill 6.2, Bead autofluor 3300, PrP UTR inh -9, ugtP null kill 8, Mtb hypoxia rep 0, BJeLR viability -4 and Mtb hypoxia rep growth -13.
`Cc1ccc(OCCn2cc(/C=C/C(=O)O)c3ccccc32)cc1` gave RN4220 kill 8.7, Bead autofluor 3734, PrP UTR inh -18, ugtP null kill -7, Mtb hypoxia rep -1, BJeLR viability 8 and Mtb hypoxia rep growth 3.
O=C(NC1CCCCCCC1)c1ccc(CNc2c(N3CCOCC3)c(=O)c2=O)cc1 was read as RN4220 kill -1.8, Bead autofluor 5077, PrP UTR inh -21, ugtP null kill -20, Mtb hypoxia rep -6, BJeLR viability -4 and Mtb hypoxia rep growth 3.
Cc1cccc(OCCC(=O)Nc2c(C)n(C)n(-c3ccccc3)c2=O)c1 was read as RN4220 kill -0.3, Bead autofluor 4818, PrP UTR inh 4, ugtP null kill 9, Mtb hypoxia rep 3, BJeLR viability 3 and Mtb hypoxia rep growth 4.
For Cc1ccsc1-c1nc(CSCC(=O)N2CCN(c3ccccc3)CC2)c(C)o1 the results were RN4220 kill 0.9, Bead autofluor 5927, PrP UTR inh -14, ugtP null kill -9, Mtb hypoxia rep 4, BJeLR viability -17 and Mtb hypoxia rep growth 13.

Of the compounds above, these have a halogen:
`Clc1ccc(OCCN2CCCCC2)cc1Cl` gave RN4220 kill -8.8, Bead autofluor 2135, PrP UTR inh 4, ugtP null kill -4, Mtb hypoxia rep -3, BJeLR viability -16 and Mtb hypoxia rep growth 12.
Screening O=C(CSc1nc(=O)n(CCCN2CCOCC2)c2c1CCCC2)Nc1ccc(Cl)cc1 returned RN4220 kill -0.7, Bead autofluor 7471, PrP UTR inh -22, ugtP null kill 3, Mtb hypoxia rep 4, BJeLR viability 4 and Mtb hypoxia rep growth -2.
O=C(CCC(F)(F)F)N1CCCC(CO)(CCc2ccccc2)C1 (stereo not drawn) was read as RN4220 kill 3.9, Bead autofluor 3971, PrP UTR inh -35, ugtP null kill 2, Mtb hypoxia rep 12, BJeLR viability -6 and Mtb hypoxia rep growth 3.

Further entries
N/C(=N\OC(=O)c1ccccc1Br)c1ccc([N+](=O)[O-])cc1 was read as Bead autofluor 3580, PrP UTR inh -102 and BJeLR viability 3.
For CC(=O)c1ccc(N2CCN(Cc3cc(=O)n4c(-c5ccccc5)csc4n3)CC2)cc1 the results were RN4220 kill 3.8, Bead autofluor 4176, PrP UTR inh -8, ugtP null kill 5, Mtb hypoxia rep 15 and Mtb hypoxia rep growth 4.
Screening COc1ccc(-c2cc(C(=O)NC3=NCCS3)c3ccccc3n2)cc1OC returned RN4220 kill 3.4, Bead autofluor 5067, PrP UTR inh -10, ugtP null kill 2, Mtb hypoxia rep 12, BJeLR viability -5 and Mtb hypoxia rep growth 11.
For Fc1ccc(-[n+]2nc(Nc3ccccc3)sc2-c2ccc(OCc3ccccc3)cc2)cc1 the results were RN4220 kill -4.4, Bead autofluor 4858, PrP UTR inh -29, ugtP null kill -6, Mtb hypoxia rep 2, BJeLR viability -1 and Mtb hypoxia rep growth 15.
For O=C(CN1CCN(S(=O)(=O)c2ccccc2)CC1)NC1CC1 the results were Bead autofluor 4448, PrP UTR inh 1 and BJeLR viability 7.
Screening COc1ccccc1NC(=O)Nc1nc(CC(=O)NCc2ccccn2)cs1 returned RN4220 kill -1.2, PrP UTR inh 2, ugtP null kill -3, Mtb hypoxia rep -3, BJeLR viability 0 and Mtb hypoxia rep growth 3.
`O=C(Cc1ccccc1)Nc1ccccc1C(=O)O` gave RN4220 kill 1.9, Bead autofluor 8506, PrP UTR inh -15, ugtP null kill 1, Mtb hypoxia rep 0, BJeLR viability -7 and Mtb hypoxia rep growth 21.
`CCOc1ccc(C(=O)CCC(=O)N2CCC(C(=O)OC)CC2)cc1` gave RN4220 kill -0.6, Bead autofluor 4565, PrP UTR inh -8, ugtP null kill 4, Mtb hypoxia rep 9, BJeLR viability -11 and Mtb hypoxia rep growth 0.
Screening Cc1cc2ccccc2cc1C(=O)c1ccccc1 returned RN4220 kill 4.7, Bead autofluor 2988, PrP UTR inh 15, ugtP null kill 78, Mtb hypoxia rep 8 and Mtb hypoxia rep growth 12.
For CCCCCOC(=O)C1[C@H]2C(=O)N(c3ccccc3CC)C[C@]23C=C[C@H]1O3 (stereo partly drawn) the results were RN4220 kill -9.2, Bead autofluor 2561, PrP UTR inh -27, ugtP null kill 1, Mtb hypoxia rep 7, BJeLR viability 2 and Mtb hypoxia rep growth 7.
`O=C1c2cccc([N+](=O)[O-])c2C(=O)N1CCO` gave RN4220 kill 3.7, Bead autofluor 2561, PrP UTR inh -10, ugtP null kill -7, Mtb hypoxia rep 4, BJeLR viability -5 and Mtb hypoxia rep growth 3.
`CCc1cccc(CC)c1NC(=O)COC(=O)c1cccc(-c2ccc(OC(C)=O)cc2)c1` gave RN4220 kill 4.8, Bead autofluor 1972, PrP UTR inh -2, ugtP null kill 7, Mtb hypoxia rep -1, BJeLR viability 11 and Mtb hypoxia rep growth 8.
For COc1ccc(S(=O)(=O)N2CCC(C(=O)N3CCCCC3)CC2)cc1OC the results were RN4220 kill 1.7, Bead autofluor 3701, PrP UTR inh -21, ugtP null kill 1, Mtb hypoxia rep -83, BJeLR viability 5 and Mtb hypoxia rep growth -22.
Screening COc1ccc(C(=O)n2nc(C)c(Br)c2C)cc1 returned RN4220 kill 3.1, Bead autofluor 3261, PrP UTR inh -10, ugtP null kill 18, Mtb hypoxia rep 7, BJeLR viability -5 and Mtb hypoxia rep growth 1.
For COc1cccc(-c2nc(CSCC(=O)NCC3CCCO3)c(C)o2)c1 (stereo not drawn) the results were RN4220 kill 4.2, Bead autofluor 5415, PrP UTR inh -13, ugtP null kill 7, Mtb hypoxia rep 2, BJeLR viability -5 and Mtb hypoxia rep growth 8.

Grouped by structure, the entries above containing a furan ring, fused or not.
Screening O=C1CN(C(=O)COC(=O)C2CC(=O)N(Cc3ccco3)C2)c2ccccc2N1 (stereo not drawn) returned RN4220 kill -0.3, Bead autofluor 2648, PrP UTR inh -12, ugtP null kill 4 and BJeLR viability -3.
Screening COc1ccc(NC(=O)c2ccco2)cc1NC(=O)c1cccc(OC(C)C)c1 returned RN4220 kill 0.9, Bead autofluor 8380, PrP UTR inh -19, ugtP null kill -7, Mtb hypoxia rep 4, BJeLR viability -11 and Mtb hypoxia rep growth 7.

The listing picks up; the 2 compounds before the break are reprinted first.
Screening COc1ccc(C(=O)n2nc(C)c(Br)c2C)cc1 returned RN4220 kill 3.1, Bead autofluor 3261, PrP UTR inh -10, ugtP null kill 18, Mtb hypoxia rep 7, BJeLR viability -5 and Mtb hypoxia rep growth 1.
For COc1cccc(-c2nc(CSCC(=O)NCC3CCCO3)c(C)o2)c1 (stereo not drawn) the results were RN4220 kill 4.2, Bead autofluor 5415, PrP UTR inh -13, ugtP null kill 7, Mtb hypoxia rep 2, BJeLR viability -5 and Mtb hypoxia rep growth 8.
Screening Cc1nc(NC(=O)c2ccccc2)sc1C1(C)CC(c2c(Cl)cccc2Cl)=NO1 (stereo not drawn) returned Bead autofluor 2912, PrP UTR inh 2 and BJeLR viability 7.
COc1ccccc1NC(=O)CN(c1ccc([N+](=O)[O-])cc1)S(=O)(=O)c1ccccc1 was read as RN4220 kill 0.5, Bead autofluor 7051, PrP UTR inh 13, ugtP null kill 5, Mtb hypoxia rep 1, BJeLR viability -16 and Mtb hypoxia rep growth 6.
`Cc1ccc(SCC(=O)OCC(=O)NCc2cccs2)cc1` gave RN4220 kill 0.3, Bead autofluor 5412, PrP UTR inh -45, ugtP null kill 9, Mtb hypoxia rep 7, BJeLR viability 8 and Mtb hypoxia rep growth -4.
CC1SCC(=O)N(CC(=O)NCc2ccccc2)C1=O (stereo not drawn) was read as RN4220 kill 3.0, Bead autofluor 2745, PrP UTR inh -19, ugtP null kill 4, Mtb hypoxia rep 2, BJeLR viability -2 and Mtb hypoxia rep growth 3.
COc1ccc(NC(=O)c2ccc(CNc3c(NC4CCCCC4)c(=O)c3=O)cc2)c(OC)c1 was read as RN4220 kill 3.7&3.5, Bead autofluor 3927&5796, PrP UTR inh -18&-8, ugtP null kill -5&4, Mtb hypoxia rep 4&-1, BJeLR viability -2 and Mtb hypoxia rep growth 3&5.
For CSC1=NC2(C[C@H]2c2ccccc2)C(=O)N1C (stereo partly drawn) the results were RN4220 kill 2.6, Bead autofluor 5408, PrP UTR inh -11, ugtP null kill 3, Mtb hypoxia rep 0, BJeLR viability 6 and Mtb hypoxia rep growth -5.
For CCn1c(N2CCN(C(c3ccccc3)c3ccccc3)CC2)nc2c1c(=O)[nH]c(=O)n2C the results were RN4220 kill -6.1, Bead autofluor 3057, PrP UTR inh -2, ugtP null kill -2, Mtb hypoxia rep -8 and Mtb hypoxia rep growth 4.
Screening CSCC[C@H](NC(=O)OC(C)(C)C)c1nnc(SCC(=O)Nc2ccc(C)cc2C)o1 returned RN4220 kill -6.4, Bead autofluor 2935, PrP UTR inh -11, ugtP null kill 7 and BJeLR viability 9.
Screening O=C(NCc1ccncc1)c1cccc(S(=O)(=O)N2CCc3ccccc32)c1 returned RN4220 kill 4.4, Bead autofluor 6437, PrP UTR inh -16, ugtP null kill 2, Mtb hypoxia rep 28* and Mtb hypoxia rep growth 56*.
Screening Cc1cccc(C2c3[nH]c4ccccc4c3CCN2C(=O)Cc2n[nH]c(C)n2)n1 (stereo not drawn) returned RN4220 kill 5.0, Bead autofluor 3432, PrP UTR inh -8, ugtP null kill 0, Mtb hypoxia rep 6, BJeLR viability 6 and Mtb hypoxia rep growth -1.

Compound activity from PubChem BioAssay.
